MT1-MMP act inh = blockers of MT1-MMP proenzyme processing, primary screen, HT1080 RFP-PRO-GFP cells, GFP/RFP fluorescence | Matrix metalloproteinase-14 (Homo sapiens), P50281 | GFP/RFP ratio fluorescence, overnight; percent of plate control window, DMSO zero | GFP/RFP ratio change, % at 20 µM | 360,000 tested, 0.061% active | AID 651647, 2012;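 active = GFP/RFP ratio change of at least 30% with cell ATP level not reduced by more than half and red fluorescence within 50% of control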; also: strong numbers were not always called active
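Assay system: HT1080 RFP-PRO-GFP cells. Benchmarks: DMSO vehicle wells and RFP-L50D-GFP reporter cell wells. Times: overnight cell settling, then overnight compound exposure, 37 °C, 5% CO2. Compound: 20 µM single dose, 1% DMSO. Read-out basis: GFP/RFP fluorescence ratio.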
Yeast UUG start = modulators of yeast start codon fidelity, primary screen, whole organism, S. cerevisiae, single point, plate reader. S. cerevisiae UUG-firefly luciferase reporter, luminescence/redox ratio. activity score, % at 18.7 µM. 350,000 tested, 0.13% active;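 active = replicate mean at a twofold rise or more, about +100% in these data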;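 also: firefly luciferase made from a UUG start codon reports start codon fidelity; reporter light over untreated wells divided by growth signal over untreated wells; some hits fall short of that in this replicate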
eIF4H inh = human eIF4H binding inhibitors, primary screen, translation initiation inhibitor project, biochemical, uHTS, fluorescence polarization | Eukaryotic translation initiation factor 4H (Homo sapiens), Q15056 | eIF4H fluorescence polarization binding assay | inhibition, % at 35 µM | 290,000 tested, 0.94% active | AID 2012, 2009;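 active = 50% or more with normal probe brightness, or confirmed in later tests; inconclusive = above 50% with abnormal brightness, or retests that disagree; inactive = below 50% or failed in later tests; about a fifth of its hits are not listed in these tables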;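 also: calls also rest on retests at 20 µM and on dose response follow-up; 0% = protein and probe with vehicle and 100% = probe without protein; strong numbers were not always called active; many hits fall short of the cut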
PABP polyA inh = PABP poly(A) RNA binding inhibitors, primary screen, biochemical, fluorescence polarization, uHTS; 290,000 tested, 1% active; AID 2014, 2009; Polyadenylate-binding protein 1 (Homo sapiens), P11940; inhibition, % at 35 µM;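 active = 50% or more with normal probe brightness, or confirmed in later tests; inconclusive = above 50% with abnormal brightness, or retests that disagree; inactive = below 50% or failed in later tests; about a fifth of its hits are not listed in these tables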;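 also: calls also rest on retests at 20 µM and on dose response follow-up; controls were probe without protein and protein plus probe with vehicle; some compounds called inactive have numbers as strong as hits; many hits fall short of the cut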
Target sequence (P11940 whole entry, looked up): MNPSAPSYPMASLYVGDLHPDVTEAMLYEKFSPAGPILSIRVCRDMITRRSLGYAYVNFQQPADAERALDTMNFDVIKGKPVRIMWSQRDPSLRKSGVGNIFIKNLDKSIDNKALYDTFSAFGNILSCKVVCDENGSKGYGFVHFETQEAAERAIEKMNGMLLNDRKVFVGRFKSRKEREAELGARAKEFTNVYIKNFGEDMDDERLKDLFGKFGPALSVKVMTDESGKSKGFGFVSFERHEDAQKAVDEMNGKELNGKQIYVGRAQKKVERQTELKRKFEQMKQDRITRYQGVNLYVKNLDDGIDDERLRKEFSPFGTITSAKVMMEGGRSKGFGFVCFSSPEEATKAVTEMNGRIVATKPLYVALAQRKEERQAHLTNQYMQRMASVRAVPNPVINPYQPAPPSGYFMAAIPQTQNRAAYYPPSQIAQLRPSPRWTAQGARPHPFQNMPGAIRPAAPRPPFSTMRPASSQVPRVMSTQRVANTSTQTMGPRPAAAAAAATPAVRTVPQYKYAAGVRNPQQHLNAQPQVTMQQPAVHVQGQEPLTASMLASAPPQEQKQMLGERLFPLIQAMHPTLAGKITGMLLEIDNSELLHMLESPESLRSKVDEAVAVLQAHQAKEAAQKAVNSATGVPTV
CSC inhib = cancer stem cell viability inhibitors, primary screen, luminescence. 300,000 tested, 1.1% active. cancer stem cell-like cells viability. inhibition, % at 7.5 µM. AID 2717, 2010;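 active = mean at 75% or more and at least half the replicates too; inconclusive = mean and replicates disagree; tested in HMLE shEcad cells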;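 also: 0% = median of negative and 100% = median of positive control wells; the first replicate is given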
Env fusion inh = inhibitors of HIV-1 Env-driven cell-cell fusion, primary screen, HeLa-JRFL effector, CEM21 target cells, luciferase; AID 651610, 2012; 360,000 tested, 1.1% active; inhibition, % at 12.3 µM;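 active = mean replicate inhibition score of at least 50 and every replicate individually at or above 50; inconclusive = only one of the two criteria met; inactive = mean below 50 and not all replicates reaching 50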;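 also: 0% = plate neutral controls and 100% = maraviroc near 300 nM; one replicate is shown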
Rce1 inh = yeast Rce1p protease inhibitors, primary screen, biochemical, fluorescence, cell-free homogeneous. yeast membranes, quenched prenylated peptide cleavage fluorescence. AID 2563, 2010. CAAX prenyl protease 2 (Saccharomyces cerevisiae (strain ATCC 204508 / S288c)), Q03530. calls only. 290,000 tested, 0.27% active;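 active = fall in fluorescence gain of 50% or more versus controls, with final raw signal at or below 3038400; inconclusive = same 50% fall but final raw signal above 3038400; inactive = fall in fluorescence gain under 50%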;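 also: plate controls were neutral control wells for no effect and wells lacking membranes for full effect; tested at 10 µM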
Target sequence (Q03530 whole entry, looked up): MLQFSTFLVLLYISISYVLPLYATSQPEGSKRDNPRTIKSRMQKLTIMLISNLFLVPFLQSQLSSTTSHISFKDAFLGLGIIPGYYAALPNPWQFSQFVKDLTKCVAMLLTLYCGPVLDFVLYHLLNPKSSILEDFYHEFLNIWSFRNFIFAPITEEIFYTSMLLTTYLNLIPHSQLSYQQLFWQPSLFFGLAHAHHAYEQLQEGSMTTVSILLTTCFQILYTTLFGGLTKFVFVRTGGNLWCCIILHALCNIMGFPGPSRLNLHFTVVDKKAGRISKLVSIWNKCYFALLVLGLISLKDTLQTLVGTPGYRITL
eIF4H inh retest = also measured in eIF4H inh; calls as there; inhibition, %; compound at 20 µM; confirmation average;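 mean of two retest wells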
PABP polyA inh retest = second read-out of PABP polyA inh, no call of its own (marks repeat the call); inhibition, %; compound at 20 µM; confirmation repeats;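 mean of two retest wells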
MT1-MMP act inh RFP = recorded beside MT1-MMP act inh, whose call it bears; RFP signal change, %; measured here: RFP expression control read;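 0 = vehicle wells; hits needed this value within 50% of zero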
Starred values were filed as active, the others as inactive; i = inactive; u = inconclusive; x = no result given; + = active, no number.

SMILES | MT1-MMP act inh | MT1-MMP act inh RFP | Yeast UUG start | eIF4H inh | PABP polyA inh | CSC inhib | Env fusion inh | Rce1 inh | others
COc1ccc(-c2c(C#Cc3ccsc3)c3cc(-c4ccc5[nH]ccc5c4)ccc3n2C)cc1 | -8 | 2 | 0 | x | x | 9 | 0 | x
O=C(COC(=O)c1cc(Br)ccc1O)Nc1cc(S(=O)(=O)N2CCCC2)ccc1Cl | x | x | x | -12 | 0 | x | -3 | i
CCOC(=O)CSc1nc2nc(Cl)c(Cl)nc2[nH]1 | -2 | 2 | -16 | x | x | x | -3 | x
CN(C)S(=O)(=O)c1ccc(C(=O)Nc2cccc(S(=O)(=O)NC3=NCCC3)c2)cc1 | 5 | -4 | -12 | 0 | 4 | -13 | -8 | i
O=C(Nc1ncccn1)c1ccc([N+](=O)[O-])cc1[N+](=O)[O-] | -1 | 2 | 11 | x | x | -17 | -4 | i
COCCNC(=O)C1=NOC(Cn2cc(C#N)c(=O)n(C)c2=O)C1 (stereo not given) | 1 | 0 | -7 | 2 | -1 | -7 | -7 | i
Cc1nc(-c2ccc([N+](=O)[O-])cc2)nc2[nH]ccc(=O)c12 | 1 | 1 | 0 | -9 | -13 | -3 | -85 | i
NC(=O)c1ccc(NC(=O)COC(=O)CCN2C(=O)c3ccccc3C2=O)cc1 | -3 | 3 | -6 | x | x | -6 | 1 | x
CCOC(=O)c1sc2c(c1C)c(=O)n(CCO)c(=O)n2Cc1ccccc1 | 2 | 3 | -4 | -6 | 2 | -9 | 7 | i
O=C(CN1c2ccccc2Sc2ccccc21)NNC(=O)Nc1ccc(Cl)c(Cl)c1 | 4 | -1 | -25 | 3 | -8 | 101* | -5 | i
COC(=O)CN1C(=O)Nc2ccc(C)cc2C1c1ccccc1 (stereo not given) | 2 | 1 | x | 1 | -1 | -3 | -6 | i
CCOc1ccc(C(=O)Nc2cccc3nsnc23)cc1[N+](=O)[O-] | 0 | 1 | x | 6 | -7 | 7 | 0 | i
O=C(CCCC(=O)OCC(Cl)=C(Cl)Cl)Nc1ccccc1F | -3 | 5 | -2 | -2 | 15 | 1 | x | i
O=C1NC[C@H](Cc2ccc(O)cc2)N(C[C@H]2CCCN2C[C@H](Cc2ccccc2)N2C[C@H](Cc3ccccc3)N(CCc3ccccc3)C(=O)C2=O)C1=O | 1 | 1 | 2 | x | x | x | 7 | x
Cc1ccc2c(=O)cc(C(=O)NCCc3ccc(S(N)(=O)=O)cc3)oc2c1C | -6 | -3 | -4 | -4 | 2 | -4 | -5 | i
CCCc1nc(SCC(=O)O)c2sc(=S)n(-c3ccccc3)c2n1 | -1 | 3 | -14 | 9 | -1 | 5 | 10 | i
CCN(C(=O)COC(=O)c1cccc(C)c1[N+](=O)[O-])c1c(N)n(Cc2ccccc2)c(=O)[nH]c1=O | -3 | 4 | -2 | x | x | x | 5 | x
CC1Cc2ccccc2N1S(=O)(=O)c1c(N)n(C)c(=O)n(C)c1=O (stereo not given) | 0 | 5 | -4 | -2 | 0 | x | -40 | i
Cc1ccc(C(=O)NCCCNc2ccc(C(F)(F)F)cc2[N+](=O)[O-])cc1 | 3 | 2 | x | 18 | 22 | 6 | -6 | i
CCOC(=O)N1CCN(C(=O)CCS(=O)(=O)c2ccc(Br)s2)CC1 | 6 | 0 | x | 2 | -10 | -4 | -3 | i
COc1ccc(/C=N/N=C2/NC(=O)C(CC(=O)O)S2)cc1OS(=O)(=O)c1ccccc1 (stereo not given) | -3 | 1 | 9 | -1 | -14 | -16 | 15 | i
O=C(N/N=C/c1cccs1)c1cccc(NC(=O)c2ccc(Cl)cc2)c1 | x | x | x | 5 | 20 | u | -6 | i
CCN(CC)S(=O)(=O)c1ccc2oc(Nc3ccccc3)nc2c1 | 0 | 2 | -14 | -4 | 10 | 34 | -32 | i
Cc1cccc(OCC(=O)NCC(=O)N/N=C/c2cccs2)c1 | 2 | 0 | x | -1 | 19 | 0 | x | i
COc1cc(F)ccc1-c1csc(C(O)(c2ccccc2)C(F)(F)F)n1 (stereo not given) | -2 | -8 | -4 | x | x | x | 9 | x

Other results.
SMILES | MT1-MMP act inh | MT1-MMP act inh RFP | Yeast UUG start | eIF4H inh | PABP polyA inh | CSC inhib | Env fusion inh | Rce1 inh | others
N#Cc1c(N)nc(SCc2ccccn2)c(C#N)c1-c1cccs1 | 8 | -13 | -7 | -2 | -4 | -7 | 56* | i
CSc1nc2ccccc2n1Cc1cccc(F)c1 | 5 | 5 | -14 | -6 | 6 | -2 | x | i
O=C1c2cccc3c(N4CCCCC4)ccc(c23)C(=O)N1c1ccccc1O | -165 | -11 | x | u | u | 31 | 15 | i
CCOC(=O)c1cccc(NC(=O)CSc2nnc(-c3ccoc3C)n2CC)c1 | -3 | -3 | -7 | -2 | -2 | -13 | -47 | i
CCC1CCCCN1CCCNC(=O)CC1Oc2ccc(C)cc2NC1=O (stereo not given) | -1 | 2 | 3 | -7 | -5 | x | 14 | i
CCCN1CCN(CCCNC(=O)c2cc3c(=O)[nH]c4ccccc4c3s2)CC1 | 5 | 0 | 4 | 6 | u | -1 | -9 | i
COC(=O)Cn1c(CCC(=O)O)ccc1-c1ccccc1 | -4 | 8 | -10 | 11 | 15 | -8 | -10 | +
Cc1cccc(NC(=O)C2CCN(S(=O)(=O)c3ccc4ccccc4c3)CC2)n1 | 4 | -12 | -18 | x | x | -11 | 44 | i
COc1ccc(C(=O)N2CCN=C2SC)cc1 | 5 | 1 | x | 4 | 7 | 5 | -5 | i
Cc1cccc(NC2SC(=O)N(c3ccccc3)C2=O)c1 (stereo not given) | -7 | 1 | -19 | 1 | 11 | -5 | x | i
O=C(CCNS(=O)(=O)c1c(Cl)cccc1Cl)N1CCCC1 | 1 | 5 | -8 | x | x | x | 7 | x
COc1cc(C(=O)NNC(=O)c2ccoc2C)cc(OC)c1OC | -6 | -4 | x | 18 | 8 | 17 | 5 | i
c1cc(CNCC2CCCO2)ccn1 (stereo not given) | 0 | 3 | x | 80 | -5 | x | 15 | i | eIF4H inh retest=-3;PABP polyA inh retest=2
COc1c2ccoc2c(OC[C@@H](O)C(C)(C)O)c2oc(=O)ccc12 | 3 | 3 | -20 | 1 | -9 | -6 | 16 | i
CC(=O)Nc1nc2nc(-c3ccccc3)cc(-c3ccccc3)n2n1 | 5 | -1 | -7 | -6 | -2 | -6 | -30 | i
CCOCCOC(=O)c1ccc(NC(=O)c2cc3ccccc3o2)cc1 | 8 | -8 | -2 | x | x | x | 2 | x
Cn1cncc1C#Cc1ccc2c(=O)c3ccccc3oc2c1 | 0 | -2 | -22 | x | x | 51 | 13 | x
CCNc1nc(N2CCCCC2)nc(-n2nnc(C(=O)OCC)c2C)n1 | -6 | -4 | -7 | -3 | -1 | -3 | -118 | i
Cc1ccc(C(=O)/C=C/C(=O)O)cc1 | -1 | -1 | -3 | -1 | 0 | 0 | 2 | x
Cc1nn(CC(=O)N2CCCC2)c(=O)c2nn(-c3ccccc3)c(C)c12 | -1 | 1 | -6 | 3 | -10 | -7 | -10 | i
N=c1c2c(-c3ccccc3)c(-c3ccccc3)n(Cc3ccccc3)c2ncn1CCO | -19 | -19 | 36 | -2 | 4 | 8 | u | i
CC(C)c1ccc(/C=N/NC(=O)c2ccc(-n3cnnn3)cc2)cc1 | 6 | 2 | -5 | x | x | x | -5 | x
COc1ccc([C@H]2C[C@H](n3cc(COC(=O)c4ccccc4)nn3)[C@@H](O)CN2CC2CCCCC2)cc1 | 1 | 3 | 13 | x | x | x | -21 | x
OCCC1CN(Cc2cc3c(cc2Cl)OCO3)CCN1Cc1ccccc1 (stereo not given) | -1 | 1 | x | -8 | -11 | 18 | -11 | x
COC(=O)C(C)(C)ONC(=O)Nc1ccc([N+](=O)[O-])cc1 | 0 | -4 | x | 6 | -7 | -1 | 11 | i

Filtered by structure: the entries above containing a nitro group on carbon.
SMILES | MT1-MMP act inh | MT1-MMP act inh RFP | Yeast UUG start | eIF4H inh | PABP polyA inh | CSC inhib | Env fusion inh | Rce1 inh | others
O=C(Nc1ncccn1)c1ccc([N+](=O)[O-])cc1[N+](=O)[O-] | -1 | 2 | 11 | x | x | -17 | -4 | i
Cc1nc(-c2ccc([N+](=O)[O-])cc2)nc2[nH]ccc(=O)c12 | 1 | 1 | 0 | -9 | -13 | -3 | -85 | i
CCOc1ccc(C(=O)Nc2cccc3nsnc23)cc1[N+](=O)[O-] | 0 | 1 | x | 6 | -7 | 7 | 0 | i
CCN(C(=O)COC(=O)c1cccc(C)c1[N+](=O)[O-])c1c(N)n(Cc2ccccc2)c(=O)[nH]c1=O | -3 | 4 | -2 | x | x | x | 5 | x
Cc1ccc(C(=O)NCCCNc2ccc(C(F)(F)F)cc2[N+](=O)[O-])cc1 | 3 | 2 | x | 18 | 22 | 6 | -6 | i
COC(=O)C(C)(C)ONC(=O)Nc1ccc([N+](=O)[O-])cc1 | 0 | -4 | x | 6 | -7 | -1 | 11 | i

Additional structures
SMILES | MT1-MMP act inh | MT1-MMP act inh RFP | Yeast UUG start | eIF4H inh | PABP polyA inh | CSC inhib | Env fusion inh | Rce1 inh | others
COc1ccc2ccccc2c1C=NN1CCCCC1 | 1 | 3 | -9 | x | x | x | 5 | x
CCOC(=O)CSc1nc2cc3c(cc2cc1CC)OCCO3 | 5 | 5 | -18 | 1 | 6 | -7 | 18 | i
COCCN1C[C@@H](CO)O[C@@H](n2cnc3c(NC4CC4)ncnc32)C1 | 4 | 2 | -23 | x | x | x | -9 | x
CC(C)(C)c1ccc(OCC(O)CNC(=O)c2ccccc2C(=O)O)cc1 (stereo not given) | 21 | 12 | 14 | x | x | x | x | i
CC1CC(C)CN(S(=O)(=O)c2ccc3c(c2)oc(=O)n3CC(=O)N(C)Cc2ccccc2)C1 (stereo not given) | -2 | -9 | -2 | -16 | -8 | 7 | 2 | i
CCOc1ccc(CCNC(=O)COC(=O)c2c(OC)cccc2OC)cc1OCC | 3 | 5 | -14 | x | x | x | -20 | i
O=C(Nc1ccc(Cl)c([N+](=O)[O-])c1)C(Sc1ccccc1)c1ccccc1 (stereo not given) | -23 | -25 | x | -3 | -10 | -5 | -6 | +

Arranged by heavy-atom count (falling): part of the list above
SMILES | MT1-MMP act inh | MT1-MMP act inh RFP | Yeast UUG start | eIF4H inh | PABP polyA inh | CSC inhib | Env fusion inh | Rce1 inh | others
CC(C)(C)c1ccc(OCC(O)CNC(=O)c2ccccc2C(=O)O)cc1 (stereo not given) | 21 | 12 | 14 | x | x | x | x | i
COCCN1C[C@@H](CO)O[C@@H](n2cnc3c(NC4CC4)ncnc32)C1 | 4 | 2 | -23 | x | x | x | -9 | x
COc1ccc2ccccc2c1C=NN1CCCCC1 | 1 | 3 | -9 | x | x | x | 5 | x

Some of the compounds tested, so the mix of outcomes need not match the whole.
